UCH37 DUB inh = inhibitors of human deubiquitinating enzyme UCH37; AID 588478; Q9Y5K5; 330,000 tested, 0.33% active; inhibition, % (no concentration beside the values); purified proteasome/UCH37, Ub-AMC cleavage fluorescence;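 active means mean of two replicates above 20%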;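 further: 0% = compound-free wells with enzyme and 100% = wells lacking proteasome; stock transfer was 100 nL into about 20 µL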
Target sequence (Q9Y5K5 whole entry, looked up): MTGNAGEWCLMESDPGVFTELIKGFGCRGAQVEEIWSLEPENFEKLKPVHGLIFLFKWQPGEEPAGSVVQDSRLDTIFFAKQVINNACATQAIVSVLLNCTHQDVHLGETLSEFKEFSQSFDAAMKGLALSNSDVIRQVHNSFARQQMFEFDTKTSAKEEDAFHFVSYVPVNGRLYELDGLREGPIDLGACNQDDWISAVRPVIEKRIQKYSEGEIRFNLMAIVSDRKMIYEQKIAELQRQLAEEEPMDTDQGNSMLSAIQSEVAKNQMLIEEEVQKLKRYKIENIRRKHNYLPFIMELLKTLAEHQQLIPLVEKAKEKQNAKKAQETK
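system = Proteasome-associated human UCH37 deubiquitinase | amount = 0.15 nM proteasome as dispensed | medium = pH 7.4 Tris-HCl (50 mM) with ovalbumin, ATP-MgCl2, DTT | incubation = 30 min preincubation with enzyme, 25 min cleavage at room temperature | detection = AMC fluorescence 355/460 nm | read-out basis = percent inhibition | controls = no-proteasome and no-compound wells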
FGF22 binding = FGF22 (human) thermal shift binding. recombinant FGF22 thermal shift, SYPRO orange fluorescence; percent of sucrose octasulfate shift, DMSO zero. 340,000 tested, 1.5% active. calls only at 9.99 µM. AID 651658. Q9HCT0;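 active means melting point raised past a set limit in the mean and every replicate; three in four hits are not shown here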
Target sequence (Q9HCT0 whole entry, looked up): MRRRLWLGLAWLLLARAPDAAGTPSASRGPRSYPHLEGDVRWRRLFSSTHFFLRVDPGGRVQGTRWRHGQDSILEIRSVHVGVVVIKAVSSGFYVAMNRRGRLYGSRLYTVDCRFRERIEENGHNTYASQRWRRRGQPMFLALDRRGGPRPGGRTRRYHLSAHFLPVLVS
ALR H2O2 inh = inhibitors of human sulfhydryl oxidase ALR; inhibition, % (test concentration not listed); 290,000 tested, 3.8% active; AID 485317; purified ALR, DTT oxidation, H2O2 HRP-luminol luminescence;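 active means mean and each replicate at 75% or more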;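 further: stock transfer was 7.5 nL into about 7.5 µL; 0% = neutral wells and 100% = wells with inactivated enzyme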
E coli growth = E. coli growth inhibition; Escherichia coli growth, OD600, 23 h; stronger effect = lower value; OD600 absorbance (concentration not given with the values); 330,000 tested, 0.21% active; AID 1053175;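 active means OD600 absorbance below the run mean of sample wells minus 3.6 SD, in any replicate, cut at about 0.56 in these data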;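 further: stock transfer was 300 nL into about 60 µL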
Beta2AR agonist = agonists of human beta-2 adrenergic receptor inducing internalization; P07550; Am2.2-beta2AR cells, FAP receptor internalization, flow cytometry; reference of the scale not given here; response, % (concentration not given with the values); 340,000 tested, 0.43% active; AID 504454;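 active means response above a set limit, near 3 SD of response in nonfluorescent compounds, cut at about 42% in these data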;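 further: stock transfer was 100 nL into about 11 µL; a reference agonist was the positive control; negative values mostly stem from fluorescent compounds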
Target sequence (P07550 whole entry, looked up): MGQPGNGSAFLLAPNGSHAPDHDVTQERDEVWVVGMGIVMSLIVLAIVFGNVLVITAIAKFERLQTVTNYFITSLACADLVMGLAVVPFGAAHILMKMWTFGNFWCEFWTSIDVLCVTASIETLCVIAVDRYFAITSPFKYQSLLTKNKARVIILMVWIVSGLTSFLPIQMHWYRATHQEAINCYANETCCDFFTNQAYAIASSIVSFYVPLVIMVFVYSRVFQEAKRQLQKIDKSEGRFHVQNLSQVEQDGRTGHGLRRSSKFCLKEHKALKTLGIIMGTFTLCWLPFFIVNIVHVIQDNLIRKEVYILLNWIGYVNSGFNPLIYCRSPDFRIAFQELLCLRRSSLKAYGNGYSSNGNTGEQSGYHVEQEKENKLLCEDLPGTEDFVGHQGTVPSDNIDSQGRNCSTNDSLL
HNF4A DNA FP = change in binding of human HNF4 alpha to DNA | 360,000 tested, 0.3% active | activity change, % at 10 µM | HNF4a-FITC DNA binding, fluorescence polarization, 1 h | P41235; in the data active means activity change above about 30%, passing the limit was not always enough;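 further: controls were the assay level and a saturating level of protein; the project sought stronger binding though the title names inhibitors; some compounds called inactive have numbers as strong as hits; positive values seem to mean higher polarization but the record does not say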
rRNA inh HTS = selective bacterial rRNA inhibition in E. coli. 350,000 tested, 1.6% active. GFP signal change (wild-type ribosome), % (test concentration not listed). E. coli WT GFP vs humanized-ribosome RFP mutants, fluorescence, 24 h; stronger effect = lower value; DMSO median 0, no signal -100. AID 720706;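 active means significant combined selectivity score with lowered wild-type GFP, culture density cut under 30%, mutant RFP and density less affected; inactive means any of these conditions unmet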; further: one replicate is shown; some compounds called inactive have numbers as strong as hits
rRNA inh HTS OD600 = second read-out of rRNA inh HTS, no call of its own (marks repeat the call); OD600 change, %; measured here: OD600 growth;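 optical density of the mix in the first replicate; 0 = DMSO median and -100 = no signal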
rRNA inh HTS RFP = recorded beside rRNA inh HTS, whose call it bears; RFP signal change, %; measured here: RFP humanized mutant strains;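 first replicate; 0 = DMSO median and -100 = no signal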
* marks the source's active call; other numbers are inactive results; i = inactive; · = not tested or not shown; + = active, no number; & = joins results of further samples. Some of the compounds tested. The share of hits here may be higher or lower than overall.

Results follow in this order: UCH37 DUB inh | FGF22 binding | ALR H2O2 inh | E coli growth | Beta2AR agonist | HNF4A DNA FP | rRNA inh HTS | rRNA inh HTS OD600 | rRNA inh HTS RFP
1) COc1ccc(CNC(=O)C[C@H]2C[C@H](C(=O)N3CCOCC3)[C@@]3(CCC4CCCC4)c4[nH]c5cc(-c6ccco6)ccc5c4CCN3C2=O)cc1OC
→ -8.6 | i | · | 0.702 | 8.8 | 4.6 | 17.1 | 14.5 | 17.4
2) COCCNc1nc(Oc2ccc(C(N)=O)cc2)c2sccc2n1
→ · | i | · | · | · | -2.7 | 2.4 | 4.1 | -3.0
3) Cn1cnnc1SCC(=O)NNC(=O)COc1ccc(Cl)cc1
→ 5.1 | i | -7.6 | 0.663 | -0.3 | 4.2 | 8.2 | 3.0 | -7.6
4) CCc1[nH]nc(C(=O)N2CCCC(CO)(Cc3ccc(F)cc3F)C2)c1C (stereo unspecified)
→ -0.1 | i | -13.9 | 0.709 | -1.6 | -1.7 | -0.8 | 7.3 | -0.5
5) CC(OC(=O)CNC(=O)COc1ccccc1)C(=O)N(C)Cc1ccccc1 (stereo unspecified)
→ 2.5 | i | -13.9 | 0.7 | 4.3 | 1.5 | 0.7 | 3.3 | -0.5
6) O=[N+]([O-])c1ccc2cn(C3OC(CO)C(O)C3O)nc2c1 (stereo unspecified)
→ · | i | · | · | · | 1.8 | 10.6 | 20.9 | 9.0
7) CCc1ccc(-c2cc3c(=O)n(CC(=O)NCCCN4CCN(C)CC4)ncn3n2)cc1
→ 3.2 | i | 2.8 | 0.645 | 0.4 | -1.5 | -0.1 | 0.1 | -1.1
8) CCCNC(=O)COc1coc(CN2CCN(c3cccc(Cl)c3)CC2)cc1=O
→ 1.6 | i | -9.2 | 0.653 | -6.8 | 2.0 | 3.5 | 1.8 | 1.9
9) CN(C)CCCNS(=O)(=O)c1ccc(-n2nnc3ccccc32)c([N+](=O)[O-])c1
→ 2.6 | i | · | 0.662 | -14.4 | -2.8 | 1.7 | 13.5 | 0.1
10) O=c1oc2cc(Oc3ccc(C(F)(F)F)cc3[N+](=O)[O-])ccc2c2c1CCC2
→ -4.9 | i | -4.7 | 0.729 | -10.8 | 0.3 | 9.3 | 8.1 | 7.9

3 compounds drawn at random from the list so far, as already listed:
Results follow in this order: UCH37 DUB inh | FGF22 binding | ALR H2O2 inh | E coli growth | Beta2AR agonist | HNF4A DNA FP | rRNA inh HTS | rRNA inh HTS OD600 | rRNA inh HTS RFP
7) CCc1ccc(-c2cc3c(=O)n(CC(=O)NCCCN4CCN(C)CC4)ncn3n2)cc1
→ 3.2 | i | 2.8 | 0.645 | 0.4 | -1.5 | -0.1 | 0.1 | -1.1
3) Cn1cnnc1SCC(=O)NNC(=O)COc1ccc(Cl)cc1
→ 5.1 | i | -7.6 | 0.663 | -0.3 | 4.2 | 8.2 | 3.0 | -7.6
5) CC(OC(=O)CNC(=O)COc1ccccc1)C(=O)N(C)Cc1ccccc1 (stereo unspecified)
→ 2.5 | i | -13.9 | 0.7 | 4.3 | 1.5 | 0.7 | 3.3 | -0.5

Further entries
Results follow in this order: UCH37 DUB inh | FGF22 binding | ALR H2O2 inh | E coli growth | Beta2AR agonist | HNF4A DNA FP | rRNA inh HTS | rRNA inh HTS OD600 | rRNA inh HTS RFP
11) COc1cc(NC(=S)N2CCCC(C)C2)cc(OC)c1OC (stereo unspecified)
→ -2.0 | i | 2.8 | 0.674 | 3.4 | 3.6 | -2.1 | 5.9 | -0.5
12) Cc1ccccc1OCc1nc(C#N)c(N2CCCC2)o1
→ 5.3 | · | 0.7 | 0.703 | -8.2 | 2.5 | 4.4 | 2.6 | 1.3
13) CCOC(=O)C1CCN(C(=O)CNC(=O)c2nn(-c3ccc(OC)cc3OC)c(=O)c3ccccc23)CC1
→ 2.8 | + | · | 0.65 | -2.6 | -0.1 | 0.0 | 5.0 | -0.7
14) COC(=O)Cn1c(=NC(=O)c2ccc(Cl)s2)sc2cc(C)ccc21
→ -282.7 | · | -3.1 | 0.735 | 4.0 | -4.9 | · | · | ·
15) Cc1occc(=O)c1O
→ · | i | · | · | -2.2 | -1.0 | · | · | ·
16) CC1(C)CC(=O)C2=C(C1)N(Cc1ccco1)C(=O)C2(NC(=O)c1cccnc1)C(F)(F)F (stereo unspecified)
→ -0.9 | · | -0.8 | 0.654 | 1.3 | 0.7 | · | · | ·
17) Oc1ccc(/C=N/N(Cc2ccccc2)c2ccccc2)cc1
→ · | i | 99.2* | · | -6.1 | -0.1 | -13.9 | -1.6 | 0.2
18) COc1c[nH]n(C2CCCCC2)c(=O)c1=O
→ 1.3 | · | 3.4 | 0.703 | 3.6 | -1.1 | · | · | ·
19) COc1ccc(C(=O)ON=C2c3ccccc3-c3ccccc32)cc1OC
→ -7.6 | i | -10.8 | 0.717 | 0.6 | -2.6 | 17.8 | 23.3 | -5.9
20) Cc1ccn(C(=O)c2ccc(NC(=O)C3CC3)cc2)n1
→ 5.7 | i | -1.3 | 0.656 | -17.9 | -2.3 | 1.7 | 6.2 | -4.5
21) COc1ccc(CC(=O)NC(CC(=O)O)c2cccc([N+](=O)[O-])c2)cc1 (stereo unspecified)
→ 4.0 | i | 2.1 | 0.684 | -0.1 | 0.3 | 9.8 | 9.3 | -1.8
22) COc1cc(/C=C2\SC(=S)N(NS(=O)(=O)c3ccc(C)cc3)C2=O)cc(OC)c1OC
→ 10.9 | i | · | 0.672 | 22.3 | -1.7 | -11.6 | -7.0 | 11.5
23) COCCn1c(-c2ccc(OC)cc2)nc2oc3cc(OC)ccc3c(=O)c2c1=O
→ -59.1 | i | 5.0 | 0.656 | -8.2 | 0.4 | · | · | ·
24) O=C(N/C(=C\c1ccco1)C(=O)N1CCCC1)c1ccccc1
→ 2.0 | i | 25.3 | 0.678 | 8.9 | -3.6 | 4.4 | 9.5 | 4.1
25) CCOc1ccc2oc(C(=O)N3CCN(Cc4ccccc4)CC3)c(C)c2c1
→ -4.9 | · | · | 0.608 | 4.2 | 3.8 | · | · | ·
26) Cc1ccc(OCC(=O)N/N=C\c2ccco2)c(C)c1
→ · | · | -5.1 | · | -2.1 | -2.9 | · | · | ·
27) CCc1noc(C)c1C(=O)Nc1nc(-c2ccc(Cl)cc2Cl)cs1
→ -5.5 | i | -6.1 | 0.692 | 0.7 | -2.2 | -7.2 | -17.3 | -17.4
28) O=C(Cc1cccs1)N(Cc1cccs1)C1(C(=O)NC2CCCC2)CCCCC1
→ -1.5 | · | -39.4 | 0.712 | 7.9 | 0.3 | · | · | ·
29) c1ccc(CNc2c(-c3cccc(SC4CCCCC4)c3)nc3ccccn23)cc1
→ · | i | 0.0 | · | 15.6 | -0.5&0.8 | · | · | ·
30) CSc1nc2ccc(NC(=O)c3ccccn3)cc2s1
→ -11.9 | i | · | 0.673 | -11.0 | 0.0 | 0.0 | 1.9 | -0.2
31) CCCN(C(=O)c1ccc([N+](=O)[O-])c(C)c1)c1c(N)n(Cc2ccccc2)c(=O)[nH]c1=O
→ 3.2 | i | -5.0 | 0.682 | -1.2 | 0.9 | 6.5 | 19.8 | 1.5
32) COc1ccc(N2CCN(c3ncnc4c3[nH]c3ccccc34)CC2)cc1
→ 0.3 | · | 42.7 | 0.726 | -9.0 | -4.7 | · | · | ·
33) CCN(C1CCCCC1)S(=O)(=O)c1ccc(S(=O)(=O)NCc2ccncc2)cc1
→ 4.8 | · | -58.7 | 0.648 | 5.5 | 0.1 | · | · | ·
34) COC(OC)c1ccc(C#N)c(=O)[nH]1
→ -41.9 | i | -13.3 | 0.677 | 0.2 | -2.6 | 18.9 | 18.0 | -1.1
35) CC(Sc1nnc(-c2cccnc2)n1N)C(=O)N1CCOCC1 (stereo unspecified)
→ 1.5 | i | -10.5 | 0.679 | -9.3 | -1.5 | 1.3 | 5.1 | -2.1
36) Cc1ccnc(SCC(=O)Nc2c(C)n(C)n(-c3ccccc3)c2=O)n1
→ 2.9 | · | -2.6 | 0.694 | -4.6 | -1.4 | · | · | ·
37) O=C(CCC1N=C2c3ccccc3N=C(SCC(=O)NCc3ccco3)N2C1=O)NCc1ccco1 (stereo unspecified)
→ 0.1 | i | · | 0.716 | 2.0 | -5.3 | -3.6 | 6.6 | -2.3
38) CCNC(=O)C1(C)CCN(C(=O)c2cc(OC)c(OC)c(OC)c2)C1 (stereo unspecified)
→ · | i | · | · | · | -1.6 | 13.1 | 14.6 | -0.2
39) Cc1oc2c(C)c3oc(=O)c(CC(=O)N[C@@H](CCCNC(N)=O)C(=O)O)c(C)c3cc2c1C
→ -51.3 | i | 16.4 | 0.655 | -10.3 | -3.2 | 11.7 | 10.7 | 1.9
40) O=C(N/N=C/c1ccc(-c2ccc(Br)cc2)o1)c1ccc2c(c1)OCO2
→ · | · | -13.2 | · | 7.3 | 21.0 | 14.1 | 18.9 | 3.5
41) CC1CC(C)CN(CCCNC(=O)c2ccc3c(c2)N(Cc2ccccc2)C(=O)c2ccccc2S3=O)C1 (stereo unspecified)
→ 1.9 | i | -9.6 | 0.65 | 29.9 | 1.4 | 9.7 | -17.9 | 11.8
42) CNc1ccc(/C=C/C(=O)c2ccc(C)cc2)cc1[N+](=O)[O-]
→ 3.0 | i | 7.8 | 0.696 | 5.3 | 0.5 | 15.5 | 5.6 | 8.1
43) COc1ccc(-c2cc(C)no2)cc1S(=O)(=O)N(C)c1cccc(C)c1
→ 2.0 | i | 1.3 | 0.645 | -0.2 | 1.4 | -4.8 | -13.4 | -2.9
44) O=C(/C=C/c1ccco1)Nc1ccccc1C(=O)O
→ 12.2 | · | 5.7 | 0.675 | 1.6 | -36.1 | 19.5 | 0.0 | 7.9
45) COc1ccc(C)cc1S(=O)(=O)Nc1cccc(-c2ccc(N3CCCCCC3)nn2)c1
→ 2.3 | i | -7.0 | 0.679 | 15.5 | -3.9 | -1.7 | 2.6 | 3.1
46) O=C(CSc1ccc(-c2cccs2)nn1)N1CCCCC1
→ 1.1 | · | 1.7 | 0.665 | -12.8 | 1.2 | · | · | ·
47) Cc1cc(Br)ccc1OCC(=O)N(Cc1nc(-c2ccccc2)no1)C(C)C
→ 0.7 | · | -6.4 | 0.709 | -7.0 | -2.6 | -0.6 | -6.7 | 4.4
48) O=C(CN1C(=O)S/C(=C\c2ccccc2)C1=O)NC1CCS(=O)(=O)C1 (stereo unspecified)
→ 11.2 | i | -4.5 | 0.657 | -6.7 | -2.4 | 0.4 | 8.7 | 1.0
49) Cc1ccc(OCC(=O)Oc2cccc(C)c2)cc1
→ 5.5 | i | 2.1 | 0.625 | 9.4 | 3.0 | -8.0 | -2.5 | -1.5
50) CC(=O)OC(C(=O)NC1CCCCC1)c1ccc(C#N)cc1 (stereo unspecified)
→ 0.0 | · | 2.8 | 0.73 | -2.3 | -0.1 | · | · | ·
51) CCOC(=O)c1ccc(Nc2cc(C)nc3nc(C)nn23)cc1
→ 5.9 | i | · | 0.724 | -2.0 | -2.3 | 7.5 | -0.8 | -1.3
52) CN1CCN(S(=O)(=O)c2ccc(Cl)s2)CC1
→ 3.1 | i | · | 0.698 | 7.5 | -2.4 | 13.7 | 10.7 | 1.8
53) COc1cc2c(cc1NC(=O)Cc1ccc(C)cc1)oc1ccccc12
→ -4.3 | i | · | 0.753 | -0.6 | -4.9 | 15.7 | 9.2 | 0.9
54) O=C(O)c1cc2c(o1)CCC/C2=N\O
→ · | i | -2.0 | · | -4.5 | 1.3 | 21.6 | 18.5 | -7.7
55) COC(=O)CN(C#N)c1nc(N(C)C)nc(N(C)C)n1
→ 4.8 | i | 6.5 | 0.644 | -0.6 | 1.3 | 11.0 | 6.3 | 3.0
56) Cn1cccc1C(=O)OCC(=O)Nc1ccc2c(c1)CCC2
→ 3.9 | · | -8.5 | 0.737 | -1.9 | -1.4 | · | · | ·
